D2 PAM: human D2 receptor positive allosteric modulation | P14416 | DiscoveRx D2 beta-arrestin cells, luminescence, 90 min; 100% = 57 uM dopamine signal | potentiation, % (no concentration beside the values) | hit rate 0.23% among 360,000 | AID 624464; active = potentiation of 50% or more; inconclusive = 30% to 50%; inactive = 30% or less;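 further: compound concentration not given in the record; tested on top of an EC20 dose of dopamine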
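PathHunter D2 cells, attached overnight at 37 deg C, received compound in DMSO plus dopamine at EC20 (50 nM final) for 90 min at 37 deg C. Beta-arrestin recruitment was read as luminescence after 1 h with detection reagent at ambient temperature.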
Menin MLL FP FL: inhibitors of human menin-MLL interaction, wild-type MLL peptide | Fluorescence polarization, fluorescein-MLL peptide displacement from menin | FP activity change, % at 61.4 µM | 290,000 tested, under 10 active; inconclusive = falling polarisation curve, or a change in total fluorescence; inactive = total fluorescence flat and polarisation flat or rising; no compound was filed as active; the % refers to the polarisation; negative = inhibition;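 further: % of control where 0% means no effect; inhibitors lower the polarisation; unlabelled MLL peptide was the positive control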
Sfp PPTase inh: blocks B. subtilis Sfp PPTase activity. Q9F4F7. Biochemical Sfp PPTase activity, qHTS. Potency, µM, inactives show max response, negative = inhibition, actives largely listed as inhibitors. hit rate 3.5% among 310,000. AID 1490; active means well fitted inhibition curve with a large enough effect; inconclusive means small, poorly fitted or top-dose-only effect, or another doubt; inactive means no such curve, though single readings can be large or run the other way;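 further: the enzyme is Sfp with the accession as filed and its product quenches rhodamine fluorescence; potency means the concentration at half of the fitted maximal effect; 0% = enzyme reaction without inhibitor and -100% = no enzyme wells; top concentration of the series not given in the record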
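With Hepes-Na pH 7.6 buffer containing 10 mM MgCl2, Sfp (15 nM) modified BHQ-2-YbbR (12.5 uM) using rhodamine-CoA (5 uM). Two reads 30 minutes apart at 525/598 nm yielded each well's rate.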
TRPV1 potentiator: human TRPV1 potentiation. potentiation, % at 8.33 µM. Q8NER1. TRPV1-expressing cells, Fluo-8 calcium influx, capsaicin EC20 potentiation; host cell line not named in the record; control for the full effect not named in the record. hit rate 0.02% among 320,000; active means potentiation above 80%; inconclusive means 30% to 80%; inactive means below 30%; further: 0% is about no effect
Target sequence (Q8NER1 whole entry, looked up): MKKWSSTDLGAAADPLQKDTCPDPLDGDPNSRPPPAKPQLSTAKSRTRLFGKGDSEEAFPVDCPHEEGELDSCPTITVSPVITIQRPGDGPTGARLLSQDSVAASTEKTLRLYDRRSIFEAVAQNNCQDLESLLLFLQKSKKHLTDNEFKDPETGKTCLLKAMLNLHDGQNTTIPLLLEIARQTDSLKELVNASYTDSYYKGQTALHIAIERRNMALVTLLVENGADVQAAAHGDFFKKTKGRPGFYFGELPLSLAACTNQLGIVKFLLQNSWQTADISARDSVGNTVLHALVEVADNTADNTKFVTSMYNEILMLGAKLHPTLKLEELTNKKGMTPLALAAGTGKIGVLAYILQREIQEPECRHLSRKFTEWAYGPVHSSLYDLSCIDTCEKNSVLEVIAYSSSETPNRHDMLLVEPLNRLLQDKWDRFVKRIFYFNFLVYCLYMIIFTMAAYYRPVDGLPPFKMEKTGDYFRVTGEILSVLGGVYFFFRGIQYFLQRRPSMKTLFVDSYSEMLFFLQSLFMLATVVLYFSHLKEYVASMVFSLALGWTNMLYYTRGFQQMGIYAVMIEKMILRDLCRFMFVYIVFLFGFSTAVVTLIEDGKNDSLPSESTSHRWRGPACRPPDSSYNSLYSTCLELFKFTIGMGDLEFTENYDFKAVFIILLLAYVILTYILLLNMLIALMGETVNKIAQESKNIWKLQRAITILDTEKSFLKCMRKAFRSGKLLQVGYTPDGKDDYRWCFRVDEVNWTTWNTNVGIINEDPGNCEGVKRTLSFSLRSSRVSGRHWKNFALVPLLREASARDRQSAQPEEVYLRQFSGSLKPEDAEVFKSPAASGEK
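Fluo-8 calcium influx in TRPV1-expressing cells, kinetic read (ex 480/em 520 nm). Compound added and read 3 min for agonist activity, followed by capsaicin at EC20 final and 2 min further read for enhancement.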
ClpP mod: qHTS Assay for Activators of ClpP | purified B. subtilis ClpP, FRET peptide cleavage, 20 min | hit rate 1.9% among 340,000 | Potency, µM (titrated, usually from 57.5 µM), inactives show top-dose activity change, negative = active | AID 651965, 2013; active = well fitted falling curve with a large enough effect; inconclusive = small, poorly fitted or top-dose-only effect; inactive = no such curve, though single readings can be large or run the other way; further: potency means the concentration at half of the fitted maximal effect; the source files actives as falling curves though it sought activators and does not explain the sign; nearly all actives have a fitted effect of over 65% in size; many hits overshoot -100%
Target sequence (P80244 whole entry, looked up): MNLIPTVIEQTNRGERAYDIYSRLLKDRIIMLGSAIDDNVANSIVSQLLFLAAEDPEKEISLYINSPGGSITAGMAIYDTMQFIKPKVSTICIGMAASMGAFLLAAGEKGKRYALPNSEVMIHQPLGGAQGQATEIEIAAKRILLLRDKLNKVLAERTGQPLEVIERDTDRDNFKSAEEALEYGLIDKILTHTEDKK
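Purified B. subtilis ClpP, 10 microg/mL final in Tris/HCl pH8 with KCl, BSA, glycerol and Tween-20, cleaved an Abz/nitrotyrosine-quenched decapeptide. Fluorescence (ex 320, em 430) was read at 0 and 20 min at room temperature. Delta was normalized to 5.8 microM ADEP and DMSO/no-enzyme controls.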
gsp antagonist: gsp mutant antagonism | gsp-mutant cells, cAMP HTRF, 30 min; control for the full effect not named in the record | Potency, µM (titrated, usually from 76.9 µM), without a hit: at the highest dose activity change, negative = inhibition, usual class: inhibitors | hit rate 0.4% among 340,000; active = falling curve of any shape with a large fitted effect; inconclusive = falling curve, mostly with a smaller effect; inactive = flat or rising curve; cell line not stated here;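 further: intracellular cAMP measured with PDE inhibitor Ro 20-1724 present during compound exposure; potency means the concentration at half of the fitted maximal effect; on the % scale 0 is the no-effect control and ±100 the full control effect; nearly all actives have a fitted effect of over 65% in size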
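HTRF cAMP measurement after 30 min RT detection following 30 min, 37C compound treatment alongside […] (added as 300 uM solution) in G418-selected cells seeded at 2000/well and grown 16–24 h.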
gsp agonist: agonists of gsp mutant (McCune-Albright syndrome); hit rate 0.13% among 340,000; Potency, µM (titrated, usually from 76.9 µM), without a hit: top-dose activation (cAMP increase), hits mostly activators; gsp mutant cells, cAMP HTRF, 30 min; control for the full effect not named in the record; active = well fitted activation curve with a large enough effect; inconclusive = small, poorly fitted or top-dose-only effect, or another doubt; inactive = no such curve, though single readings can be large or run the other way; cell line not stated here;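 further: phosphodiesterase inhibitor Ro 20-1724 added with compounds to block cAMP breakdown; potency means the concentration at half of the fitted maximal effect; nearly all actives have a fitted effect of over 60% in size; about a fifth of the inactives were tested at one dose only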
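Cells in DMEM/10% FBS with G418 were pretreated with compounds in DMSO plus […] (300 uM stock) for 30 min at 37C. cAMP was measured by HTRF (cAMP-d2 plus anti-cAMP antibody-K) after 30 min at room temperature.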
Starred values were filed as active, the others as inactive; ? = inconclusive; . = not tested or not shown; & = joins results of further samples; [ ] = another dose, or the depositor's remark.

SMILES	D2 PAM	Menin MLL FP FL	Sfp PPTase inh	TRPV1 potentiator	ClpP mod	gsp antagonist	gsp agonist
O=C(NCc1cccnc1)c1cccn2c(=O)c3sccc3nc12	-14	-0.1	18%	2	-23%	10%	?
CC(=O)O[C@H]1CC[C@@]2(C)C(CCC3C2CC[C@]2(C)OC(=O)CCC32)C1 (stereo not given in full)	-4	-1.4	-5%	13	0.4%	-8%	-4%
N#Cc1c(NC(=O)/C=C/C(=O)O)sc2c1CCN(Cc1ccccc1)C2	-6	?	-27%	0	4.3%	14%	3%
Cc1cccc(OCC(=O)Nc2ccc(N3CCN(C(=O)c4ccccc4)CC3)cc2)c1C	7	-1.6	-6%	1	1.0%	-6%	13%[15.4 µM]
O=C(NCc1ccco1)c1cc(-c2ccccc2)nc2ccccc12	-28	6.2	-6%	-14	-6.9%	-10%	-21%
COC(=O)c1ccc(CN2CCN(C3CCCC3)C(CCO)C2)cc1 (stereo not given)	-4	-0.6	10%	4	.	12%	-4%[15.4 µM]
Cc1c(NC(=O)OCCNC(=O)COc2ccc(Cl)cc2Cl)sc(=S)n1C	-8	1.5	?	?	-1.6%	-18%	1%[15.4 µM]
O=C(OCc1ccccc1)N1CCC2CC1c1cc(N3CCOCC3)ccc12 (stereo not given)	-4	.	.	.	-2.9%	-17%	.
O=[N+]([O-])c1ccc(NN=C2CCCCC2)c([N+](=O)[O-])c1	-1	.	.	.	.	0%	0%
COC(=O)COc1ccc(S(=O)(=O)N2CCN(c3ccccc3F)CC2)cc1C	-1	-1.9	14%	6	-1.7%	-28%	10%
Cc1ccc(OCC(O)CNC(=O)c2ccccc2C(=O)O)cc1 (stereo not given)	-2	-3.6	12%	9	-0.4%	5%	-43%[inhibitor]
CCN(CC)c1ccc(Nc2cc3n(c(=O)n2)CCc2cc(OC)c(OC)cc2-3)cc1	4	-8.9	-21%	-30	.	13%	-3%
COCCNC(=O)CN(CCc1ccccc1)S(=O)(=O)c1ccc(Br)cc1	-6	3.1	10%	-21	.	3%	-58%[inhibitor]
Cc1ccc(Nc2ncnc3sccc23)c(C)c1	-4	-0.5	10%	-11	.	1%	-12%[15.4 µM]
O=C(N/N=C/c1cc(Br)cc(Br)c1O)c1ccncc1	-7	?	6%	2	.	-4%	1%

Given bar-delimited: part of the list above.
mol | D2 PAM | Menin MLL FP FL | Sfp PPTase inh | TRPV1 potentiator | ClpP mod | gsp antagonist | gsp agonist
N#Cc1c(NC(=O)/C=C/C(=O)O)sc2c1CCN(Cc1ccccc1)C2 | -6 | ? | -27% | 0 | 4.3% | 14% | 3%
Cc1cccc(OCC(=O)Nc2ccc(N3CCN(C(=O)c4ccccc4)CC3)cc2)c1C | 7 | -1.6 | -6% | 1 | 1.0% | -6% | 13%[15.4 µM]
O=C(NCc1ccco1)c1cc(-c2ccccc2)nc2ccccc12 | -28 | 6.2 | -6% | -14 | -6.9% | -10% | -21%
COC(=O)c1ccc(CN2CCN(C3CCCC3)C(CCO)C2)cc1 (stereo not given) | -4 | -0.6 | 10% | 4 | . | 12% | -4%[15.4 µM]

Later entries.
SMILES	D2 PAM	Menin MLL FP FL	Sfp PPTase inh	TRPV1 potentiator	ClpP mod	gsp antagonist	gsp agonist
Cc1ccccc1CC(=O)NCCN1CCCCC1	-6	4.9	7%	-6	-1.9%	3%	21%[15.4 µM]
Cc1ccccc1NC(=O)c1cnn(-c2ccccc2)c1NC(=O)c1ccco1	-14	2.1	2%	-6	0.0%	-4%	10%
CCc1ccc(OCC(=O)NNC(=O)CNC(=O)c2ccc(Br)o2)cc1	-1	.	.	2	-2.7%	15%	19%
O=C(Nc1ccc(N2CCOCC2)cc1)C1CC(=O)N(c2ccccc2)C1 (stereo not given)	0	4.9	10%	-4	-0.9%	1%	-62%[inhibitor]
COc1ccc(CCNC(=O)CN2C(=O)c3cccc4cccc(c34)C2=O)cc1OC	4	2.5	-5%	-1	-2.3%	7%	-17%
CC(=O)C[C@H]1c2cc(F)ccc2S(=O)(=O)N1c1ccc(N(C)C)cc1	-7	.	.	.	-0.3%&-0.2%	0%	-16%
CCN(c1ccccc1C)S(=O)(=O)c1cc2c3c(c1)CCN3C(=O)CC2	9	.	.	9	-22%	1%	-53%[inhibitor]
Cc1ccc(S(=O)(=O)N2CCCC2CNC(=O)c2ccc(F)c(F)c2)cc1 (stereo not given)	6	.	.	3	-2.5%	-2%	?
COC(=O)C(CC(=O)c1ccc(C)cc1)n1nc(C)cc1C (stereo not given)	-3	-1.5	-1%	-1	0.8%	5%	1%
Cc1ccc(-c2nc(SCC(=O)Nc3ccccc3OC(F)F)c3c(C)c(C(=O)O)sc3n2)cc1	.	1.3	?	4	.	.	.
COc1cc(/C=N/NC(=O)C2CCN(CC(O)COCc3ccccc3)CC2)ccc1O (stereo not given)	-13	1.6	5%	-4	?	6%	-26%
CCOC(=O)N1CCN(C(=O)c2ccc3c(c2)ncn3C2CCCC2)CC1	4	?	16%	4	2.5%	-8%	-32%[inhibitor]
O=C(N/N=C/c1ccc(F)cc1)c1ccc(-n2cnnn2)cc1	-63	.	.	-30	.	-11%	-48%[15.4 µM]
O=C(C1=C[C@H](C2CCCCC2)C[C@H](OCCCCO)O1)N1CCN(Cc2ccc3c(c2)OCO3)CC1	-16	1.8	-1%	10	-3.5%	-5%	.
COc1cc2c(cc1OC)CN(Cc1ccccc1)CC2	-15	-0.2	-5%	-1	.	10%	-26%
COc1cccc(N(C(=O)CS(=O)CC(=O)Nc2ccc(F)cc2)C(C(=O)NC2CCCCC2)c2cccs2)c1 (stereo not given)	-2	-4.8	-13%	6	3.3%	-3%	-15%
Cc1nc2ccccc2n1S(=O)(=O)c1ccc(F)cc1	-7	-5.8	13%	-1	5.2%	3%	17%
Cc1ccccc1C=O	4	.	.	3	1.4%	3%	.
CCOC(=O)CSc1nnc([C@@H](NC(=O)OC(C)(C)C)C(C)C)o1	-1	-0.8	13%	4	0.3%	2%	0%
CCOc1ccc(S(=O)(=O)N2CCN(c3ccccn3)CC2)cc1	16	-3.9	11%	14	-13%	-5%	?
O=C(Nc1cccc(Cl)c1)OCc1ccccn1	-11	-0.7	3%	-10	0.8%	10%	4%
Cc1ccc(C(=O)OCC(=O)N(Cc2ccccc2)C(C)C)cc1C	-12	.	.	.	-2.4%	-10%	0%
COC(=O)[C@H](CC(C)C)NC(=O)N1CCCCC1	-11	0.3	14%	-14	.	6%	20%[15.4 µM]
CCc1c(C(=O)NCCc2cccc(C)c2)[nH]c(C)c1C(C)=O	-5	7.3	8%	-13	.	-4%	18%
CC(C)(C)c1ccc(C(=O)CSc2nc3ccccc3c(=O)[nH]2)cc1	-7	7.3	7%	25	0.7%	21%	14%
CCOc1ccc(CN(C)C(C)C(=O)NCCc2ccc(F)cc2)cc1 (stereo not given)	-12	-4.2	-8%	-10	.	-8%	-6%
Cc1ccc2c(c1)c1c(n2CC(O)CNC2CCCCC2)CCCC1 (stereo not given)	-8	-21	-12%	-5	?	-7%	15%
Cc1ccc(C)c(N2CCN(C(=O)Cc3c(C(=O)O)[nH]c4ccc(Cl)cc34)CC2)c1	-11	7.7	18%	9	-2.9%	-8%	?
CCOC(=O)C1CCN(c2c(NCCCN(CC)c3ccccc3)c(=O)c2=O)CC1	-11	0.5	-2%	-3	-1.6%	-8%	26%
Cc1ccc(S(=O)(=O)Nc2ccc(OCC(=O)N3CCOCC3)cc2)c(C)c1NS(C)(=O)=O	-4	6.8	17%	-3	.	9%	1%

An excerpt from further up:
SMILES	D2 PAM	Menin MLL FP FL	Sfp PPTase inh	TRPV1 potentiator	ClpP mod	gsp antagonist	gsp agonist
Cc1ccc(C)c(N2CCN(C(=O)Cc3c(C(=O)O)[nH]c4ccc(Cl)cc34)CC2)c1	-11	7.7	18%	9	-2.9%	-8%	?
CCOC(=O)C1CCN(c2c(NCCCN(CC)c3ccccc3)c(=O)c2=O)CC1	-11	0.5	-2%	-3	-1.6%	-8%	26%
Cc1ccc(S(=O)(=O)Nc2ccc(OCC(=O)N3CCOCC3)cc2)c(C)c1NS(C)(=O)=O	-4	6.8	17%	-3	.	9%	1%

Random excerpt: two compounds from above.
SMILES	D2 PAM	Menin MLL FP FL	Sfp PPTase inh	TRPV1 potentiator	ClpP mod	gsp antagonist	gsp agonist
CC(C)(C)c1ccc(C(=O)CSc2nc3ccccc3c(=O)[nH]2)cc1	-7	7.3	7%	25	0.7%	21%	14%
CCc1c(C(=O)NCCc2cccc(C)c2)[nH]c(C)c1C(C)=O	-5	7.3	8%	-13	.	-4%	18%

Next results follow.
SMILES	D2 PAM	Menin MLL FP FL	Sfp PPTase inh	TRPV1 potentiator	ClpP mod	gsp antagonist	gsp agonist
O=C(Cc1ccc(O)cc1)N/N=C/c1cccnc1	-12	.	26%	-6	1.0%	16%	-6%
COc1cc2c(=O)n(Cc3ccccc3)c(=O)n(CC(=O)NCCc3ccccc3)c2cc1OC	-3	-4.3	?	13	28µM*	-2%	6%
O=C(COc1ccccc1[N+](=O)[O-])N/N=C/c1ccc(OC(=O)c2ccco2)cc1	-13	1.1	-13%	25	-2.1%	7%	-10%[15.4 µM]
CNC(=O)c1ccc(Nc2nnc(-c3ccc(O)cc3)c3ccccc23)cc1	4	8.5	0%	13	-7.2%	-25%	5%
CCOc1ccccc1NC(=O)c1cc(SC)ccc1Cl	-26	2.7	-16%	-12	.	.	-2%[15.4 µM]
C=CCC[C@H](Cc1ccc(F)cc1)C(=O)OC[C@@H](Cc1c[nH]c2ccccc12)NC(=O)[C@@H](CC=C)CC(=O)NCCO	5	.	.	.	-4.3%	-1%	7%
O=C(NC(=S)Nc1ccc(S(=O)(=O)Nc2nccs2)cc1)c1ccc(F)cc1	-10	-2.5	-17%	17	-28%	-15%	-12%
O=C(NCCN1CCN(c2ccccc2F)CC1)C1CC(=O)N(C2CCCC2)C1 (stereo not given)	-20	-0.4	6%	.	-0.2%	-10%	7%
C/C(N)=C(/C#N)C(=O)COC(=O)c1cc(-c2ccc(Br)cc2)nc2ccccc12	-1&-7	-4.0	3%	-5	-23%	?	34%&10%
